# Screening data: PubChem, several laboratories
# ugtP null kill: kills S. aureus RN4220 lacking UgtP | S. aureus RN4220 ugtP deletion, OD600 growth, 16 h; some inactives read as strong as hits | growth inhibition, % (no concentration beside the values) | 0.54% of 330,000 active | AID 1259309;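 active = z-score under -3 and OD600 up to 0.15 on both plates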;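 also: plate controls were untreated wells for no effect and antibiotic for full effect; wells of about 80 µL received 100 nL stock; the first replicate is given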
# PrP UTR inh: inhibition of PrP 5' UTR reporter expression; cell-based PrP 5' UTR mRNA reporter, plate reader; inhibition, % (no concentration beside the values); 0.35% of 340,000 active;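 active = every replicate at 50% or more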;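 also: 0 = median of the neutral control wells; tested in H4 reporter cells; numbers are from one replicate; inactives centre near -14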
# Autofluor counter: compound fluorescence in toxin protease inhibitor counterscreen; AID 624483; 3.1% of 360,000 active; compound autofluorescence counterscreen, microsphere flow cytometry; hits give high values; fluorescence intensity (concentration not given with the values);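 active = at least 3 SD above the mean of all compounds, about 16000 in these data; inconclusive = too few beads counted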;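 also: 100 nL of 1 mM stock went into each well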
# RN4220 kill: kills Staphylococcus aureus RN4220. S. aureus RN4220 growth, OD600, 16 h. inhibition, % (concentration not given with the values). 0.33% of 330,000 active. AID 1259311;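 active = z-score of -3 or lower and OD600 up to 0.18 on both plates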;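 also: plate controls were untreated cells for no effect and reference antibiotic for full effect; stock transfer was 100 nL into about 80 µL; one replicate is shown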
# Mtb hypoxia rep: Mtb hypoxia fluorescent reporter inhibition | M. tuberculosis hypoxia-regulated fluorescent reporter, fluorescence | fluorescence inhibition, % (no concentration beside the values) | 0.1% of 300,000 active | AID 1159583;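 active = 35 to 45% if threefold the growth effect, above 45% if 1.5-fold the growth effect; inactive = the rest, general growth blockers included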;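 also: wells of about 50 µL received 100 nL stock; 0% = vehicle wells and 100% = reference inhibitor wells; whole bacteria with a GFP reporter of the hypoxia response; strong numbers were not always called active; many hits fall short of the cut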
# BJeLR lethal: BJeLR cell viability loss. inhibition, % (test concentration not listed). 0.17% of 300,000 active. BJeLR (HRASV12) viability, CellTiter-Glo ATP luminescence, 48 h; reference of the scale not given here;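 active = replicate mean above 50%; inconclusive = above 50% but judged a plate artefact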;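 also: 50 nL library stock added to about 25 µL; numbers are from one replicate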
# Mtb hypoxia rep growth: recorded beside Mtb hypoxia rep, whose call it bears; growth inhibition, %; measured here: M. tuberculosis growth (absorbance);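 0% = vehicle and 100% = reference antibiotic; read after six days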
# Numbers without * were called inactive; ? = inconclusive; nt = not tested or not shown; & = joins results of further samples. Hits appear at their usual frequency, and some 3.9% of all compounds hit somewhere here.
# Below each SMILES – ugtP null kill, PrP UTR inh, Autofluor counter, RN4220 kill, Mtb hypoxia rep, Mtb hypoxia rep growth, BJeLR lethal
O=S(=O)(/N=C(/Nc1cc(N2CCOCC2)ncn1)c1ccccc1)c1ccccc1
→ nt, 7, 4691, nt, nt, nt, -5
O=c1c2ccccc2nc(SCc2cccc(F)c2)n1Cc1ccco1
→ 24, 3, 10070, -6.2, 5, 5, -12
CC(=O)c1cccc(N2C(=NC(=O)C3CC3)SC3CS(=O)(=O)CC32)c1 (stereo not drawn)
→ 1, 2, 4420, 0.5, 2, 0, 4
COc1ccc(C(=O)NC2CCN(CC(=O)Nc3c(C)cccc3C)CC2)cc1OC
→ 7, -8, 3614, 4.6, 8, -4, 2
COc1ccc2cc(CCNC(=O)c3ccco3)c(=O)[nH]c2c1
→ 3, -93, 6143, 1.3, -3, 6, -1
O=C(O)c1c[nH]c2cc(C(F)(F)F)ccc2c1=O
→ -3, -18, 2851, 6.3, 6, -1, 3
Cc1cccc2cc(CN(CCN3CCCC3)C(=O)NC3CCCCC3)c(=O)[nH]c12
→ -4, -21, 6044, -1.7, 5, 11, 8
COc1ccc(C(=O)NN=C(CCC(=O)O)c2ccc(C(C)(C)C)cc2)cc1OC
→ -2, nt, nt, 4.7, -1, -8, nt
O=C(N/N=C/c1ccccc1C(=O)O)c1ccc(COc2cccc3cccnc23)cc1
→ nt, -10, 4686, nt, nt, nt, -22
CCCCn1c(N)c(N(CC)C(=O)Cc2ccc(S(=O)(=O)N3CCOCC3)s2)c(=O)[nH]c1=O
→ -1, -6, 5300, 0.5, -9, 0, -6
Cc1cc(F)ccc1S(=O)(=O)N1CCCOC1CNC(=O)C(=O)NC1CC1 (stereo not drawn)
→ 2, -2, 5492, 1.3, 3, -5, -1
Cc1ccc(S(=O)(=O)N(C)c2ccc(C(=O)Nc3ccccn3)cc2)cc1
→ 0, -4, nt, 1.5, 9, 6, -6
CCOC(=O)Cn1nc(C)n(-c2ccc(C)cc2)c1=O
→ -2, -29, 22478*, 3.5, 11, 9, -14
C=C(C)C(=O)N1CC2(CC(c3cccc(NC(=O)c4ccccc4)c3)=NO2)CC1C(N)=O (stereo not drawn)
→ 0, nt, nt, 3.2, 7, 9, nt
CC(=O)N1CCC(=NNC(=O)CSc2cc(C)c(Br)cc2C)CC1
→ 5, -12, 2498, 5.8, 7, 7, -6
Cc1nn(-c2ccc(Cl)cc2)c(N)c1C(O)(CSc1nccn1C)C(F)(F)F (stereo not drawn)
→ 5, 8, 3245, 4.5, 10, 9, nt
CC(C)Sc1nc2ccccc2n1CC(=O)NCc1ccc2c(c1)OCO2
→ 24, -17, 22521*, 15, 15, 8, 20
Cc1ccc(C(=O)ON=Cc2c(C)nn(C)c2Cl)cc1
→ 7, nt, nt, 0.7, 15, 0, nt
Cc1ccc(-c2nnc(CSc3nnc(COc4ccccc4)n3-c3ccccc3)o2)cc1
→ 4, -10, 8757, 6.9, 5, 10, -6
CCCn1nc(NC(=O)c2cccs2)c2cc3cc(C)ccc3nc21
→ nt, -15, 3878, nt, nt, nt, 3

# Sorted by SMILES length (smallest number first): some entries from above.
# Below each SMILES – ugtP null kill, PrP UTR inh, Autofluor counter, RN4220 kill, Mtb hypoxia rep, Mtb hypoxia rep growth, BJeLR lethal
O=C(O)c1c[nH]c2cc(C(F)(F)F)ccc2c1=O
→ -3, -18, 2851, 6.3, 6, -1, 3
COc1ccc2cc(CCNC(=O)c3ccco3)c(=O)[nH]c2c1
→ 3, -93, 6143, 1.3, -3, 6, -1
CC(C)Sc1nc2ccccc2n1CC(=O)NCc1ccc2c(c1)OCO2
→ 24, -17, 22521*, 15, 15, 8, 20
Cc1ccc(S(=O)(=O)N(C)c2ccc(C(=O)Nc3ccccn3)cc2)cc1
→ 0, -4, nt, 1.5, 9, 6, -6
COc1ccc(C(=O)NN=C(CCC(=O)O)c2ccc(C(C)(C)C)cc2)cc1OC
→ -2, nt, nt, 4.7, -1, -8, nt

# The list continues.
# Below each SMILES – ugtP null kill, PrP UTR inh, Autofluor counter, RN4220 kill, Mtb hypoxia rep, Mtb hypoxia rep growth, BJeLR lethal
CCCCNC(=O)C1CCC(CNS(=O)(=O)c2c(C)cc(C)cc2C)CC1 (stereo not drawn)
→ 2, nt, 3874, -1.0, -9, 7, 5
CCOC(=O)C1=C(N)OC2=C(C(=O)CCC2)C12C(=O)N(C)c1ccccc12 (stereo not drawn)
→ 1, -19, 5646, 4.2, 17, -4, 9
CCN1CCN(CCCCOc2ccccc2F)CC1
→ 7, -23, 9585, 4.5, 4, 7, 5
O=C(NCCN1C(=O)S/C(=C/c2cccnc2)C1=O)c1ccc(S(=O)(=O)N2CCCC2)cc1
→ -8, 85*, 4060, 5.3, nt, nt, nt
Cc1ncc(CSc2nc3ccccc3[nH]2)c(N)n1
→ -2, -25, 11511, 3.6, -5, 5, 7
C(=N\Nc1cc(N2CCCCC2)ncn1)/c1ccco1
→ nt, -49, 3623, nt, nt, nt, -9
CC(NC(=O)Nc1ccc2c(c1)OCO2)C1CCCO1 (stereo not drawn)
→ 1, -35, 23219*, 2.0, 5, 8, -6
Cc1ccc(S(=O)(=O)N2CCC(=O)CC2)cc1
→ 1, -14, 5692, 0.4, 0, 7, 0
CS(=O)(=O)Nc1ccc(C2=NN(C(=O)c3cccc(F)c3)C(c3cccs3)C2)cc1 (stereo not drawn)
→ -4, -13, 4243, -0.3, 14, 13, -9
C[C@]12CCC3c4cc(O)c(O)cc4CCC3C1CCC2O (stereo partly drawn)
→ -12, nt, nt, 11, 0, -8, nt
COc1cccc(-c2ncc3ccccc3c2CO)c1
→ -13, -11, 3655, 4.0, 11, 9, nt
COC(=O)C1=CC(C(=O)OC)C2C3=C(C(=O)[C@@]2(C)NC(=O)c2ccccc2)C(c2ccccc2)C2C(=O)NC(=O)C2C3C1 (stereo partly drawn)
→ -6, nt, nt, -1.7, -3, 6, nt
CN(C)c1ccc(NC(=O)c2sc(SCC(=O)Nc3nccs3)nc2N)cc1
→ 11, -57, 23476*, 7.1, 9, 4, 0
C=CCN1C(=O)/C(=C\c2cccc(OC(=O)c3ccco3)c2)SC1=S
→ 2, -12, 5104, 2.2, 6, -2, 2
O=C(N/N=C1\CCSC1)c1cc(Cl)ccc1O
→ nt, -16, 4502, nt, nt, nt, 6
COc1ccc(C(=O)Nc2cccc(S(=O)(=O)NC3=NCCCCC3)c2)cc1
→ -2, -21, ?, 0.7, -11, 8, nt
CC(O)C(NS(=O)(=O)c1ccc(Cl)cc1)C(=O)OCc1cc([N+](=O)[O-])cc2c1OCOC2 (stereo not drawn)
→ nt, -10, 3273, nt, nt, nt, -4
COc1ccc(S(=O)(=O)N(C)CC(=O)NCCN2CCOCC2)cc1Cl
→ 3, -9, 3904, 1.4, 0, 1, -4
NC(=O)C1CCNc2c(I)cc([N+](=O)[O-])cc2C(=O)NC(CCC(=O)O)C(=O)NC(CO)C(=O)N1 (stereo not drawn)
→ -1, nt, nt, 3.2, 7, 1, nt
COc1ccccc1C(=O)NC(=O)CSc1nnnn1C
→ 9, 7, 4632, 4.3, 14, 9, nt

# New compounds follow.
canonical_smiles	ugtP null kill	PrP UTR inh	Autofluor counter	RN4220 kill	Mtb hypoxia rep	Mtb hypoxia rep growth	BJeLR lethal
CC1=CC(C)C(C=Nn2cnnc2)C(C)C1 (stereo not drawn)	-3	nt	nt	6.5	-7	7	nt
CC(C)c1ccc(NC(=O)CSc2nc(=O)n(CCN3CCOCC3)c3c2CCC3)cc1	13	-19	?	-3.8	-2	-5	1
CCOC(=O)c1ccc(NC(=S)Nc2ccc(C)cc2)cc1	-9	-20	2464	7.0	21	29	-7
CN(CC(=O)N1CCN(c2ccccc2)CC1)S(=O)(=O)c1cccs1	-4	-18	3743	5.7	9	4	-15
Cc1noc(NS(=O)(=O)c2ccc(NC(=O)C(C)C)cc2)c1C	2	-17	3603	3.8	18	10	-1
N#C/C(=C\c1ccc(C#N)cc1)C(=O)c1ccccc1	nt	-15	2914	nt	nt	nt	-4
CCOC(=O)C1=C(CC)Nc2ccccc2N=C1NC(=O)c1cc(C)on1	2	-27	3624	4.1	-6	3	nt
NC1=NC[C@H](Cc2ccc(O)cc2)N1CCC12CC3CC(CC(C3)C1)C2	nt	-25	4402	nt	nt	nt	20
COc1cc(-c2nccc3cc4c(cc23)OCO4)cc(OC)c1OC	0	-31	4023	-0.9	8	5	nt
Cc1nc(NC(=O)COC(=O)c2cccs2)c(Cl)cc1Cl	-7	-13	6280	4.1	4	3	nt
CC(=O)N1NC(=Nc2ccccc2)SC1(C)C	5	-14	3340	9.5	0	-6	29
CC(C)CSc1nc2ccccc2[nH]1	24	-44	4241	12	-1	3	9
COc1ccc(NC(=O)C2CCN(S(=O)(=O)c3ccc4c(c3)NC(=O)C(C)S4)CC2)cc1 (stereo not drawn)	9	-15	5894	-0.1	14	5	-9
Cc1cc(N(C)C)ccc1[N+](=O)[O-]	1	-1	2705	3.3	-10	-4	6
S=C(NCCCc1ccccc1)Nc1ccccc1Cl	-34	-16	2726	-6.6	-14	10	-10
CCOc1ccc(-n2c(SCc3nc(-c4ccc(C)cc4)no3)nnc2-c2ccncc2)cc1	16	-3	10666	4.0	2	4	0
CCOC(=O)C1C2COc3cc(OC)ccc3C2N2C(=O)N(c3ccc(C(F)(F)F)cc3)C(=O)[C@@]12C (stereo partly drawn)	1&-12	nt	nt	2.3&1.0	0&10	2&15	nt
COc1cc(CCCN2C(N)=NCC2Cc2ccccc2)cc(OC)c1OC (stereo not drawn)	-2	nt	nt	1.3	-5	1	nt
COc1ccc(OC)c(NC(=O)COc2ccc(S(=O)(=O)NC(C)C)cc2)c1	3	-15	4819	-3.5	7	-2	-6
O=C1CC(=O)N2N=C(c3ccc([N+](=O)[O-])cc3)SC2=N1	9	-35	1965	4.3	-1	5	4
Oc1ccc(C=Nn2c3ccccc3c3ccccc32)cc1	19	nt	nt	-13	1	10	nt
CCCOC(=O)c1ccc(NC(=O)C2CCCO2)cc1 (stereo not drawn)	2	-57	9486	5.3	3	5	9
O=C(Nc1cccc(Cl)c1Cl)c1cc(S(=O)(=O)NCCc2ccccc2)ccc1F	0	-30	2563	1.9	-4	-4	-13
CCOC(=O)c1ccc(-n2[nH]c(-c3ccccc3)cc2=O)cc1	7	-23	8977	53	-3	9	-6
COc1cc(C(=O)Nc2cc(S(=O)(=O)N3CCOCC3)ccc2N2CCN(C)CC2)cc(OC)c1OC	-6	-8	3100	-4.4	-2	-1	nt
Cc1cc(C)nc(-n2nc(C)cc2Nc2ccccc2)n1	-2	-20	2413	4.3	nt	nt	6
Cc1ccccc1-c1nnc(SCCOc2ccc3c(C)cc(=O)oc3c2)o1	-8	-9	3140	-9.8	nt	nt	6
O=C(O)c1sccc1Oc1ccc(NS(=O)(=O)c2ccccc2)cc1	8	-16	2987	-1.9	-6	-6	-4
O=C(COC(=O)Cn1cnc2ccccc21)Nc1cccc(S(=O)(=O)N2CCOCC2)c1	3	-16	2241	1.8	5	10	-11
COc1ccc(N(CC(=O)NN=C(C)c2ccccc2)S(=O)(=O)c2ccccc2)cc1	12	nt	nt	2.1	4	1	nt
CC(=O)c1ccc(-c2cccs2)s1	-11	69*	4439	4.7	-7	7	0
O=C(Oc1ccccc1)N1CCN(c2ccc(F)cc2)CC1	1	-32	2944	11	25	14	-4
CCOC(=O)N1CCN(C(=O)c2c(-c3c(Cl)cccc3Cl)noc2C)CC1	2	-9	5124	-1.1	0	4	-10
CC(CCC(=O)O)C1CCC2C3CCC4C[C@H](O)CCC4(C)C3CC(=O)C12C (stereo partly drawn)	7	-21	3742	17	0	10	9
Cn1c(=O)c(=O)n(C)c2cc(S(=O)(=O)CCC(=O)Nc3cccc(C(F)(F)F)c3)ccc21	4	-21	5938	1.6	8	-2	-1
COc1ccc(CCNC(=O)CC(C)=NNC(=O)c2cnccn2)cc1	1	nt	nt	0.8	2	-4	nt
